MARV entry inh = blocks Marburg virus binding to or entry into cells. Marburg virus pseudotyped entry inhibition, cell reporter; control for the full effect not named in the record; about a third of the inactives were read at about 46 µM. Potency, µM (series often up to 37.8 µM), without a hit: at the highest dose activity change, negative = inhibition, most hits filed as inhibitors. 300,000 tested, 1.8% active; active = well fitted inhibition curve with a large enough effect; inconclusive = small, poorly fitted or top-dose-only effect, or effect the other way; inactive = flat fitted curve, though single readings scatter; tested in HEK293 cells; about a fifth of its hits are not listed in these tables; also: % is scaled to controls: 0 for no effect and ±100 for the full control effect; luciferase read-out
Lassa entry inh = inhibitors of Lassa virus binding or cell entry. Lassa virus pseudotype entry inhibition, cell reporter; control for the full effect not named in the record. Potency, µM (highest dose often 37.9 µM), without a hit: at the top dose activity change, negative = inhibition, actives largely listed as inhibitors. 300,000 tested, 1.2% active. AID 540256; active means well fitted inhibition curve with a large enough effect; inconclusive means small, poorly fitted or top-dose-only effect, or effect the other way; inactive means flat fitted curve, though single readings scatter; tested in HEK293 cells; also: % is scaled to controls: 0 for no effect and ±100 for the full control effect; nearly all actives have a fitted effect of over 50% in size; luciferase read-out
Cruzain noTriton = inhibitors of Trypanosoma cruzi cruzain without detergent | P25779 | purified cruzain, Z-FR-AMC fluorescence, no detergent | Potency, µM, without a hit: max response, negative = inhibition, actives largely listed as inhibitors | 200,000 tested, 2.3% active | AID 1476; active = well fitted curve in the direction sought with a large enough effect; inconclusive = small, poorly fitted or top-dose-only effect, or another doubt; inactive = no such curve, though single readings can be large; an effect the other way counts as inactive or inconclusive;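 also: plate controls were enzyme without inhibitor for no effect and buffer without enzyme for full effect; nearly all actives have a fitted effect of over 40% in size; top concentration of the series not given in the record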
Target sequence (P25779 123-467 limits assumed): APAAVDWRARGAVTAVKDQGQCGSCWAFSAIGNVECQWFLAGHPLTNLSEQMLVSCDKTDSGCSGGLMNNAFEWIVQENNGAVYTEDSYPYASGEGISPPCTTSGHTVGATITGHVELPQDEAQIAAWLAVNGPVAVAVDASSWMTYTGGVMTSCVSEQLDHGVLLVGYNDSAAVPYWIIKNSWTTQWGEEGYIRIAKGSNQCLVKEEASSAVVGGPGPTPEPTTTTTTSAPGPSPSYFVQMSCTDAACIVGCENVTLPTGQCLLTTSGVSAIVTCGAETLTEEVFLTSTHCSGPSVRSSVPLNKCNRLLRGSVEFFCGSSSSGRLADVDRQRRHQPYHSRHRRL
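Detergent-free condition (0.00005% Triton X-100) in acetate buffer pH 5.5 with DTT. 1.5 nM enzyme and compound were pre-mixed 15 min, then 2 uM Z-FR-AMC substrate added; reaction progress from fluorescence change between first and third reads (60 s).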
NS1 function inh = inhibitors of influenza NS1 protein function; S. cerevisiae slowed by influenza A NS1, growth recovery by OD600; 270,000 tested, 0.4% active; Potency, µM (top dose mostly 46.1 µM), for the others: top-dose activity, positive = more growth; also: actives are rising curves; nearly all actives have a fitted effect of over 50% in size
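Growth recovery, yeast-based: influenza A NS1 expressed in S. cerevisiae causes slow growth, and suppressors are detected by OD600. The parent strain without NS1 is used as positive control.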
Cruzain inh Det = inhibitors of Trypanosoma cruzi cruzain with detergent; purified cruzain, Z-FR-AMC fluorescence, 0.01% Triton; AID 1478; 200,000 tested, 0.43% active; Potency, µM, for the others: max response, negative = inhibition, usual class: inhibitors; active = well fitted curve in the direction sought with a large enough effect; inconclusive = small, poorly fitted or top-dose-only effect, or another doubt; inactive = no such curve, though single readings can be large; an effect the other way counts as inactive or inconclusive;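 also: plate controls were neutral wells for no effect and buffer without enzyme for full effect; nearly all actives have a fitted effect of over 40% in size; top concentration of the series not given in the record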
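Enzyme 1.5 nM, Z-FR-AMC 2 uM, NaOAc 100 mM pH 5.5, DTT 5 mM, Triton X-100 0.01%; 15 min RT compound preincubation; kinetic ex360/em450, 60 s delta.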
RE007 growth inh = less growth of the S. pombe RE007 Vpr strain. AID 651644. S. pombe RE007 Vpr strain, BacTiter-Glo ATP luminescence, 24 h; control for the full effect not named in the record. Potency, µM (titrated, usually from 92.2 µM), inactives show at the top dose activity change, negative = less growth. 360,000 tested, 0.21% active; active = well fitted falling curve with a large enough effect; inconclusive = small, poorly fitted or top-dose-only effect; inactive = no such curve, though single readings can be large or run the other way;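 also: % is scaled to controls: 0 for no effect and ±100 for the full control effect; nearly all actives have a fitted effect of over 50% in size; the assay follows cell death caused by Vpr and the record does not say whether a fall means rescue or toxicity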
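Fission yeast RE007 carrying one integrated HIV-1 vpr copy, seeded at OD 0.01 in PMG+AL medium with 23 nL pinned compound. Grown 24 h at 30 degrees; viability read by BacTiter-Glo luminescence after 5 min.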
SARS PLP yeast = SARS-CoV PLP inhibition in yeast; S. cerevisiae expressing SARS-CoV PLpro, growth rescue; control for the full effect not named in the record; Potency, µM (highest dose often 32.9 µM), inactives show at the top dose activity, positive = growth rescue; 330,000 tested, 0.19% active; also: 0% is about no effect; nearly all actives have a fitted effect of over 55% in size; growth read by luminescence after 48 h
2A StopGo = FMDV 2A StopGo reporter, luciferase signal | human cells with a luciferase reporter of 2A StopGo recoding; control for the full effect not named in the record | Potency, µM (doses to about 57.9 µM), without a hit: at the top dose signal change, negative = less light | 410,000 tested, 1.2% active | AID 1159524; active = well fitted falling curve with a large enough effect; inconclusive = small, poorly fitted or top-dose-only effect; inactive = no such curve, though single readings can be large or run the other way; tested in HEK293T cells; also: % is scaled to controls: 0 for no effect and ±100 for the full control effect; nearly all actives have a fitted effect of over 45% in size; luciferase light after 4 h
Starred values were filed as active, the others as inactive; ? = inconclusive; . = not tested or not shown; & = joins results of further samples; [ ] = remark or other dose. Unless noted, calls follow the shape of the dose curve; as a rule, active means well fitted rising curve with a large enough effect; inconclusive means small, poorly fitted or top-dose-only effect; inactive means no such curve, though single readings can be large or run the other way. Potency is read from the fitted curve at half-maximal effect.

SMILES	MARV entry inh	Lassa entry inh	Cruzain noTriton	NS1 function inh	Cruzain inh Det	RE007 growth inh	SARS PLP yeast	2A StopGo
O=C(CSc1ncnc2[nH]ncc12)Nc1cccc(Oc2ccccc2)c1	2%[46.1 µM]	-21%[46.1 µM]	.	.	.	3%	-3%	0%
CC1c2cc3c(cc2CCN1C(=O)c1ccc(Cl)cc1)OCCCO3 (stereo not given)	?	?	.	-28%	.	1%	-7%	-27%
N/C(=N\N=C\c1ccc(O)c(O)c1)c1nonc1N	.	.	.	2%	.	-7%	-2%	19%
O=C(NCc1cccs1)c1cc2c(s1)-c1ccccc1OC2	6%	?	25%	-8%	28%	7%	-29%	13%
CC(C(=O)N(C)Cc1cccc(F)c1)N1CCN(S(=O)(=O)c2ccc3c(c2)OCCCO3)CC1 (stereo not given)	-7%	.	.	.	.	-4%	7%	?
CS(=O)(=O)c1ccc(C(=O)Nc2ccccc2Cl)cc1	.	.	.	-3%	.	11%	0%	30%[activator]
CC(C)CC(=O)Nc1nnc(SCc2cc(=O)n3ccccc3n2)s1	.	-4%[46.1 µM]	-10%	.	2.1%	.	.	-28%
Cc1ccc(Nc2nc(CSc3nnnn3C)cs2)cc1	-21%	0%	-16%	-10%	-2.9%	6%	21%	15%
O=C(NNC(=O)c1ccco1)c1cccc([N+](=O)[O-])c1	-8%	3%	-4%	4%	1.7%	0%	-2%	-2%
CSc1nnc(NC(=O)c2nc(S(=O)(=O)Cc3ccccc3F)ncc2Cl)s1	?	?	.	8%	.	-7%	4%	7.1µM*
CCN(CCNCC(O)COc1ccccc1C(C)C)c1cccc(C)c1 (stereo not given)	?	-16%	.	3%	.	2%	-4%	-27%
Cc1ccc(OCCC(=O)OCC(=O)Nc2ccc3c(c2)OCCO3)cc1	18%[46.1 µM]	10%	.	.	.	6%	3%	64%[activator]
Cc1oc(-c2ccccc2F)nc1CSc1nnc(C)n2c1cc1occc12	.	18%[46.1 µM]	-7%	.	-1.0%	.	.	-4%
CC1CCc2sc(C(=O)OCC(=O)NCc3ccccc3)cc2C1 (stereo not given)	-22%	10µM*	-19%	1%	-0.1%	-3%	2%	-15%
COC(=O)C1=C(C)N(C)C(=O)NC1c1cc2c(cc1[N+](=O)[O-])OCO2 (stereo not given)	11%[14.2 µM]	5%	.	.	.	0%	-2%	-6%
CN(CC(=O)Nc1nccs1)S(=O)(=O)c1ccc(F)cc1	5%	-4%	5%	5%	4.9%	-2%	-3%	.
CCOc1ccc(CNCc2c(C(=O)O)n(Cc3ccccc3F)c3cc(OC)ccc23)cc1	.	-12%[46.1 µM]	3%	.	-2.3%	.	.	-13%
O=C(NC(Cc1c[nH]c2ccccc12)c1nnc2n1CCCCC2)c1ccccc1Cl (stereo not given)	6%	7%	0%	?	-4.4%	10%	5%	9%
NC(=S)NNC(=O)C12CC3CC(CC(C3)C1)C2	7%	?	1%	3%	-1.6%	-8%	27%	-9%
CC(=O)N1c2ccccc2S(=O)(=O)c2c1ccc1ccccc21	-8%	5%	.	.	.	-4%	.	0%
Cc1ccc(C(=O)NN(CCC#N)C2=NS(=O)(=O)c3ccccc32)cc1	-13%[46.1 µM]	7%[46.1 µM]	.	0%	.	-11%	0%	13%
Cc1ccc(NC(=O)c2cc(N3C(=O)C4CC=CCC4C3=O)ccc2N2CCCCC2)cc1 (stereo not given)	?	?	6%	6%	2.8%	8%	2%	6%
Cc1ccc(Cn2c(C)c3cnn(CC(=O)N4CCN(c5cc(C)ccc5C)CC4)c(=O)c3c2C)cc1	?	-26%[46.1 µM]	?	.	-5.0%	.	.	?
CC(C)n1cc(CN2CCC(n3nccc3NC(=O)C3CCCC3)CC2)cn1	24%	0%	.	0%	.	1%	-5%	-10%
Cc1cc(OCC(=O)Nc2c(C)n(C)n(-c3ccccc3)c2=O)c2c3c(c(=O)oc2c1)CCC3	-4%	.	-6%	-30%	-7.9%	.	-1%	.

Next results.
SMILES	MARV entry inh	Lassa entry inh	Cruzain noTriton	NS1 function inh	Cruzain inh Det	RE007 growth inh	SARS PLP yeast	2A StopGo
CCCC(=O)OCC(=O)Nc1ccc2[nH]c(=O)[nH]c2c1	.	.	.	4%	.	6%	1%	-5%
O=C1NC(=Nc2ccccc2)S/C1=C\c1ccccc1	.	.	.	-7%	.	2%	3%	70%[activator]
COc1ccc(C(=O)NNc2ccccc2)cc1OC	-13%	-12%	2%	-7%	0.6%	173%	4%	-7%
Cc1nsc2c1ccc1ccccc12	24%[46.1 µM]	-9%	.	-10%	.	1%	1%	14%
Cc1ccc(C(CNC(=O)Nc2cccc(C)c2)N2CCN(C)CC2)cc1 (stereo not given)	.	.	.	12%	.	-6%	1%	3%
COc1ccc(C(CNC(=O)c2c(C)nn(Cc3ccc(C)cc3)c2Cl)N2CCOCC2)cc1 (stereo not given)	?	?	.	.	.	-7%	-10%	?
O=c1c2ccccc2c2ccccc2c(=O)n1-c1ccccc1	.	.	.	9%	.	7%	1%	?
CC(C)CC(=O)Nc1ccc(N2CCN(C(=O)c3cccs3)CC2)cc1	-1%[46.1 µM]	-12%	.	21%	.	-22%	14%	-6%
Cc1ccc(OCc2nc(C#N)c(N3CCCC3)o2)cc1	4%	16%	12%	-31%	0.8%	-24%	8%	3%
CCNc1ccc(S(=O)(=O)N(C)C)cc1NCC(=O)Nc1ccc(F)c(Cl)c1	?	?	2%	-28%	-5.1%	-16%	7%	7%
Cc1cc2n(n1)C(c1cccs1)Nc1ccccc1-2 (stereo not given)	11%	-1%	12%	0%	-4.7%	-20%	6%	-11%
COC(=O)c1ccc(NC(=O)CSc2nc(C)cc(C)c2C(=O)Nc2ccccc2)cc1	?	-9%[46.1 µM]	-2%	.	-5.5%	.	.	-20%
CC(=O)N1CCc2cc(S(=O)(=O)N3CCOCC3)ccc21	5%	-9%	2%	-1%	3.4%	11%	0%	-1%
Oc1ccccc1-c1nc2cnccn2c1Nc1ccc2c(c1)OCCO2	-29%	9%	-7%	9%	-7.7%	-21%	-10%	.
Cc1ccccc1NC(=O)NCCc1c[nH]c2ccccc12	?	-30%&-5%[46.1 µM]	-3%	3%	-5.1%	1%	-5%	-23%&4%
Cc1ccc2[nH]c(C(=O)N3CCN(c4cccc(Cl)c4)CC3)cc2c1	-3%[46.1 µM]	-1%[46.1 µM]	.	8%	.	2%	9%	-9%
COc1ccc(CC(=O)NCCCSc2ccccc2)cc1OC	.	.	.	17%	.	16%	1%	-20%
Cc1ccc(NC(=S)N(C)C(c2ccccc2)c2ccccc2)cc1C	.	.	.	-8%	.	4%	-3%	-16%
COc1ccc(C(=O)O)cc1NC(=S)NC(=O)c1ccc(-c2ccc(Cl)cc2)o1	-18%[46.1 µM]	5%[46.1 µM]	.	.	.	3%	1%	-27%
COc1ccc(-c2csc(/C(C#N)=C\c3ccc(O)c([N+](=O)[O-])c3)n2)cc1OC	13%[46.1 µM]	-28%	.	10%	.	-2%	3%	?
CCN1C(=S)N[C@@H](c2cccc(F)c2)C(C(=O)OC)=C1C	.	.	.	8%&16%	.	-5%	7%&12%	-28%
O=C(/C=N/O)Nc1ccccc1C(=O)O	19%	35%	7%	-12%	-2.9%	1%	-3%	13%
CC(C)Oc1ccc(C(=O)N(CN2CCCC2=O)c2ccc(F)cc2)cc1	-24%	-2%	10%	-20%	2.5%	12%	4%	-16%
CC(=O)Nc1ccc(-c2nnc3n(CC(C)C)c(=O)c4ccccc4n23)cc1	?	-3%[46.1 µM]	-5%	.	-3.1%	.	.	-18%
Cc1nnc(SCc2cc(=O)n3[nH]cnc3n2)s1	7%&4%	1%	-2%	8%	5.1%	-12%	2%	-1%

Next compounds.
SMILES	MARV entry inh	Lassa entry inh	Cruzain noTriton	NS1 function inh	Cruzain inh Det	RE007 growth inh	SARS PLP yeast	2A StopGo
COc1ccc(CC(=O)Nc2ccc(N3CCN(c4ccc(OC)cc4)CC3)c(C#N)c2)cc1	24%	1%	-29%	?	-3.8%	-2%	-7%	?
Cc1ccc(-n2c(Cc3cccn3C)nnc2SCC(N)=O)cc1	-1%	2%	-1%	1%	1.0%	4%	-3%	-22%
C/C(CC(=O)NCc1ccc(F)cc1)=N\NC(N)=S	-7%[46.1 µM]	-4%	.	.	.	-1%	24%	-14%
COc1ccc(CCn2c(C)cc(C(=O)CSc3nnnn3C)c2C)cc1	1%	9%	-12%	2%	4.6%	6%	-1%	-21%
O=C(NCc1ccc(F)cc1)c1c2c(nc3ccccc13)C(=O)N(C1CCCCC1)C2	.	14%[46.1 µM]	-7%	.	0.0%	.	.	-18%
O=C1c2ccccc2-c2nc3ccccc3n21	?	1%[46.1 µM]	.	3%	.	-24%&-21%	0%	46%&12%[activator]
CCOc1ccc(C(=O)C[n+]2ccc(C(=O)NCCO)cc2)cc1	6%[46.1 µM]	21%	.	10%	.	-9%	4%	12%
O=C1Nc2ccccc2C1C(C[N+](=O)[O-])c1ccccn1 (stereo not given)	.	.	.	3%	.	-16%	-1%	-9%
Cc1ccccc1OCCC(=O)OCC(=O)Nc1ccc(C(N)=O)cc1	19%[46.1 µM]	0%	.	-3%	.	8%	-1%	-1%
O=C(Nc1cccc(C(F)(F)F)c1)c1cc(S(=O)(=O)N2CCCC2)c[nH]1	.	2%[46.1 µM]	2%	.	-2.4%	.	.	-4%
CCOC(=O)N1CCN(Cc2nc3ccc([N+](=O)[O-])cc3c(=O)n2-c2ccccc2F)CC1	.	.	.	3%	.	9%	-1%	-10%
CCS(=O)(=O)Nc1ccc(C(=O)CC2(O)C(=O)Nc3ccc(Br)cc32)cc1 (stereo not given)	?	11%	-2%	9%	-1.1%	-8%	-9%	-11%
CCOC(=O)c1cccnc1SCC(=O)N(C)c1ccccc1	-14%	6%	4%	-15%	-0.4%	0%	3%	13%
CCOc1ccc(C(O)C(CN2CCOCC2)c2ccccc2)cc1 (stereo not given)	14%	?	10%	?	0.2%	8%	-2%	-21%
Cc1nnc(SCc2cccc([N+](=O)[O-])c2)s1	8%[46.1 µM]	16%[46.1 µM]	.	2%	.	8%	0%	29%

High-throughput results deposited in PubChem BioAssay by National Center for Advancing Translational Sciences (NCATS).
